Screens as filed in PubChem.
CD11b adhes inh = inhibitors of CD11b/CD18 adhesion to fibrinogen, primary screen, K562 cells, luminescence | AID 1497, 2009 | ATPlite luminescence; Mn2+ added to activate the integrin | inhibition, % at 10 µM | Integrin beta-2 (Homo sapiens) + Integrin alpha-M (Homo sapiens), P05107+P11215 | 93,000 compounds, 0.54% hits;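 active = primary inhibition of 50% or more at 10 µM, then 40% or more on retest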; also: some results filed as inactive read as strong as hits
CYP2C9 inhib = blockers of cytochrome P450 2C9 activity – biochemical, luminescence, ADME assay, primary screen; P11712; CYP2C9 Supersomes, luciferin-H conversion; inhibition, % at 5 µM; 96,000 compounds, 20% hits;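 active = blocking of liver enzyme CYP2C9 beyond about 50% at 5 µM, limit read from the data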; also: values of inactives mirror those of a sister screen read the other way
CYP2C19 act = human CYP2C19 activators, primary screen, biochemical, luminescence. AID 1025, 2008. 96,000 tested, under 10 active. recombinant CYP2C19, luciferin-H EGE luminescence; hits give high values; 0 = fully inhibited enzyme, 1 = untreated enzyme. activation factor at 5 µM;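 active = activation factor of at least 2 at 5 µM in the primary screen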;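 also: 0 = wells with 2.5 mM tranylcypromine and 1 = vehicle-only wells; values of inactives mirror those of a sister screen read the other way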
Target sequence (P33261 whole entry, looked up): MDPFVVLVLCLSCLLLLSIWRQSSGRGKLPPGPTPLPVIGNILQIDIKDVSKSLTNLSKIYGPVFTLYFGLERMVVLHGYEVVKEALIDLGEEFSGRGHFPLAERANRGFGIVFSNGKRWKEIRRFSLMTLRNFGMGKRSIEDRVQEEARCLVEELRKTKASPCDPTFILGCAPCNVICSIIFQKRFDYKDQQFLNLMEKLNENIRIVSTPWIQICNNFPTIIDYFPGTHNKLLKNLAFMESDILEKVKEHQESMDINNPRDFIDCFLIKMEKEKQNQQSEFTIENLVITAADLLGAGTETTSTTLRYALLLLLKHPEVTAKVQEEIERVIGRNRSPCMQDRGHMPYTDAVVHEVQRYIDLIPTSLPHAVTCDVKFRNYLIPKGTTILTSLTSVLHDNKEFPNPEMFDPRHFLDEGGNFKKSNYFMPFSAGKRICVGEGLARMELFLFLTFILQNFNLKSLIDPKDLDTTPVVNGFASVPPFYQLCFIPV
CYP2C19 inh = blockers of cytochrome P450 2C19 activity – biochemical, luminescence, ADME assay, primary screen; inhibition, % at 5 µM; P33261; 96,000 compounds, 21% hits; CYP2C19 Supersomes, luciferin-H EGE luminescence, 30 min;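 active = CYP2C19 inhibition above a set limit at 5 µM in the primary screen, cut at about 50% in these data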;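 also: plate controls were negative control wells for no effect and 2.5 mM tranylcypromine positive control for full effect; values of inactives mirror those of a sister screen read the other way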
CD11b adhes enh = enhancers of CD11b/CD18 adhesion to fibrinogen, primary screen, K562 cells, luminescence. Integrin beta-2 (Homo sapiens) + Integrin alpha-M (Homo sapiens), P05107+P11215. ATPlite luminescence. activation, % at 10 µM. 93,000 compounds, 0.07% hits. AID 1499, 2009;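 active = 10 µM primary screen giving 50% or more activity, confirmed by 40% or more on retest at that dose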; also: strong numbers were not always called active; reference of the scale not given here
CYP2C9 activ = human CYP2C9 activators, primary screen, biochemical, luminescence | recombinant CYP2C9, luciferin-H conversion; hits give high values; factor 1 = untreated enzyme, 0 = blocked | activation factor at 5 µM | Cytochrome P450 2C9 (Homo sapiens), P11712 | 96,000 compounds, 1.4% hits;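 active = activation factor of 2 or more for CYP2C9 at a 5 µM dose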;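 also: 0 = sulfaphenazole-blocked wells and 1 = vehicle-only wells; values of inactives mirror those of a sister screen read the other way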
* = called active by the depositor; x = not tested or not shown. Not all compounds are listed. The share of hits here may be higher or lower than overall.

Second line of a record – CD11b adhes inh, CYP2C9 inhib, CYP2C19 act, CYP2C19 inh, CD11b adhes enh, CYP2C9 activ
COc1cccc(Nc2ncnc3ccccc23)c1
 : 3.0, 49.6, 0.6, 41.8, 0.4, 0.5
Cc1ccc(C)c(NC(=S)NC(NC(=O)Cc2ccccc2)C(Cl)(Cl)Cl)c1 (stereo unspecified)
 : -5.9, 36.4, 0.5, 50.2*, 47.5, 0.6
CC(C)c1nc2n[nH]c(N)c2c2c1CCCC2
 : 7.6, -8.3, 1, 0.7, 2.1, 1.1
O=C(Nc1ccc(F)cc1)c1sccc1SCc1cccc(C(F)(F)F)c1
 : 22.1, 64.7*, 0.6, 36.4, 1.6, 0.4
O=C(Nc1cccnc1)c1c(O)c2cccc3c2n(c1=O)CC3
 : -0.2, -13.7, 0.9, 7.3, -2.1, 1.1
CCN1/C(=C\C(C)=O)Sc2ccc(OC)cc21
 : -4.2, 16.3, 0.7, 26.6, 0.7, 0.8
Cc1nc(NC(=O)/C=C/c2ccccc2)sc1C(=O)Nc1ccccc1Cl
 : x, -59.0, 0.9, 6.8, x, 1.6
O=C(Nc1ccc2oc(-c3cccnc3)nc2c1)c1cc2ccccc2o1
 : 22.0, 13.8, 0.9, 6.8, 10.2, 0.9
